High-throughput results (PubChem)
SARS PLP yeast: blocks SARS-CoV papain-like protease in a yeast assay | S. cerevisiae expressing SARS-CoV PLpro, growth rescue; control for the full effect not named in the record | Potency, µM (series often up to 32.9 µM), inactives show at the highest dose activity, positive = growth rescue | 330,000 tested, 0.19% active | AID 485353; active means well fitted rising curve with a large enough effect; inconclusive means small, poorly fitted or top-dose-only effect; inactive means no such curve, though single readings can be large or run the other way; further: 0% is about no effect; nearly all actives have a fitted effect of over 55% in size; growth read by luminescence after 48 h
Lassa entry inh: Lassa virus entry inhibition | Lassa virus pseudotype entry inhibition, cell reporter; control for the full effect not named in the record | Potency, µM (titrated, usually from 37.9 µM), for the others: top-dose activity change, negative = inhibition, hits mostly inhibitors | 300,000 tested, 1.2% active | AID 540256; active means well fitted inhibition curve with a large enough effect; inconclusive means small, poorly fitted or top-dose-only effect, or effect the other way; inactive means flat fitted curve, though single readings scatter; tested in HEK293 cells; further: on the % scale 0 is the no-effect control and ±100 the full control effect; nearly all actives have a fitted effect of over 50% in size; luciferase read-out
NS1 inh: inhibitors of influenza NS1 protein function; S. cerevisiae slowed by influenza A NS1, growth recovery by OD600; Potency, µM (series often up to 46.1 µM), inactives show top-dose activity, positive = more growth; AID 2326; 270,000 tested, 0.4% active; active means well fitted rising curve with a large enough effect; inconclusive means small, poorly fitted or top-dose-only effect; inactive means no such curve, though single readings can be large or run the other way; further: nearly all actives have a fitted effect of over 50% in size
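Recovery from NS1-induced slow growth read by OD600 in budding yeast switched to galactose assay medium (pH 6.0, -URA) at 1:100 dilution. Compound 23 nl per well; the matching strain lacking NS1 serves as control.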
RE007 growth inh: less growth of the S. pombe RE007 Vpr strain; S. pombe RE007 Vpr strain, BacTiter-Glo ATP luminescence, 24 h; control for the full effect not named in the record; Potency, µM (top dose mostly 92.2 µM), for inactives: at the top dose activity change, negative = less growth; 360,000 tested, 0.21% active; active = well fitted falling curve with a large enough effect; inconclusive = small, poorly fitted or top-dose-only effect; inactive = no such curve, though single readings can be large or run the other way;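 further: on the % scale 0 is the no-effect control and ±100 the full control effect; nearly all actives have a fitted effect of over 50% in size; the assay follows cell death caused by Vpr and the record does not say whether a fall means rescue or toxicity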
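Fission yeast strain RE007, carrying one chromosomally integrated HIV-1 vpr copy, was seeded at OD 0.01 in PMG+AL medium with 23 nL pinned compound. After 24 h at 30 °C and 99% humidity, viability was read by BacTiter-Glo luminescence.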
Cruzain noTriton: inhibitors of Trypanosoma cruzi cruzain without detergent; P25779; purified cruzain, Z-FR-AMC fluorescence, no detergent; Potency, µM, without a hit: max response, negative = inhibition, most hits filed as inhibitors; 200,000 tested, 2.3% active;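 further: plate controls were enzyme without inhibitor for no effect and buffer without enzyme for full effect; nearly all actives have a fitted effect of over 40% in size; top concentration of the series not given in the record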
Target sequence (P25779 123-467 limits assumed): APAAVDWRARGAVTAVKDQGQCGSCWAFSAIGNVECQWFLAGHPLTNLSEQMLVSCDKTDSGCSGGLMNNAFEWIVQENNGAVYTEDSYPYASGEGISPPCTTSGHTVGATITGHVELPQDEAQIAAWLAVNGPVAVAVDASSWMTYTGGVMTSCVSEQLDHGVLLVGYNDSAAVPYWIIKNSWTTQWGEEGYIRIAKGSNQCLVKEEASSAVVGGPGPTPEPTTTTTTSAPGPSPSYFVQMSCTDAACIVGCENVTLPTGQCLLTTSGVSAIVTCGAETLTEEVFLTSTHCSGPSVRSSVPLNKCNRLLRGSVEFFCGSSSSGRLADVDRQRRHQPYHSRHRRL
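Purified cruzain at 1.5 nM, pre-incubated 15 min with compound at room temperature in 100 mM sodium acetate pH 5.5, 5 mM DTT, 0.00005% Triton X-100. Reaction started with 2 uM Z-FR-AMC; AMC fluorescence increase over 60 s gives rate.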
StopGo reporter: FMDV 2A StopGo reporter, luciferase signal; 410,000 tested, 1.2% active; human cells with a luciferase reporter of 2A StopGo recoding; control for the full effect not named in the record; Potency, µM (series often up to 57.9 µM), for inactives: top-dose signal change, negative = less light; active = well fitted falling curve with a large enough effect; inconclusive = small, poorly fitted or top-dose-only effect; inactive = no such curve, though single readings can be large or run the other way; tested in HEK293T cells; further: on the % scale 0 is the no-effect control and ±100 the full control effect; nearly all actives have a fitted effect of over 45% in size; luciferase light after 4 h
Marburg entry inh: blocks Marburg virus binding to or entry into cells; Marburg virus pseudotyped entry inhibition, cell reporter; control for the full effect not named in the record; about a third of the inactives were read at about 46 µM; Potency, µM (top dose mostly 37.8 µM), without a hit: at the highest dose activity change, negative = inhibition, usual class: inhibitors; 300,000 tested, 1.8% active; active = well fitted inhibition curve with a large enough effect; inconclusive = small, poorly fitted or top-dose-only effect, or effect the other way; inactive = flat fitted curve, though single readings scatter; tested in HEK293 cells; about a fifth of its hits are not listed in these tables; further: on the % scale 0 is the no-effect control and ±100 the full control effect; luciferase read-out
Cruzain inh Det: inhibitors of Trypanosoma cruzi cruzain with detergent; Potency, µM, for the others: max response, negative = inhibition, hits mostly inhibitors; P25779; purified cruzain, Z-FR-AMC fluorescence, 0.01% Triton; 200,000 tested, 0.43% active;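 further: plate controls were neutral wells for no effect and buffer without enzyme for full effect; nearly all actives have a fitted effect of over 40% in size; top concentration of the series not given in the record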
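Enzyme 1.5 nM, Z-FR-AMC 2 uM, NaOAc 100 mM pH 5.5, DTT 5 mM, Triton X-100 0.01%; 15 min RT compound preincubation; kinetic ex360/em450, 60 s delta.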
Numbers without * were called inactive; ? = inconclusive; · = no result given; & = joins results of further samples; [ ] = another dose, or the depositor's remark. Unless noted, the call rests on the fitted dose curve; in most records, active means well fitted curve in the direction sought with a large enough effect; inconclusive means small, poorly fitted or top-dose-only effect, or another doubt; inactive means no such curve, though single readings can be large; an effect the other way counts as inactive or inconclusive. Potency means the concentration at half of the fitted maximal effect. Outcome played no part in choosing rows; about 4.7% have a hit in one of these screens.

Compound	RE007 growth inh	StopGo reporter	Cruzain noTriton	Cruzain inh Det	Marburg entry inh	NS1 inh	Lassa entry inh	SARS PLP yeast
O=C(O)Cc1ccc(NC2(c3ccccc3)C(=O)c3ccccc3C2=O)cc1	·	-18%	-17%	-2.7%	·	·	-2%[46.1 µM]	·
O=C(NCC1CCCO1)c1coc2nc3ccccc3nc12 (stereo not given)	-9%	16%	1%	-16%	-28%	-7%	-14%	-7%
c1ccc(-c2onc(-c3ccco3)c2-c2ccc3c(c2)OCO3)cc1	14%	-18%	·	·	·	-6%	·	0%
CC(C)c1c(O)nc(SCC(=O)N2CCOCC2)[nH]c1=O	-8%	·	-9%	1.1%	13%	6%	20%	-2%
CC(=O)NC(Cc1ccccc1)C(=O)NC1CCN(C(=O)NC2CCCCC2)CC1 (stereo not given)	-10%	17%	-2%	-2.4%	2%	-2%	-13%	6%
CC(C)N(CCc1ccncc1)C(=S)Nc1ccc(F)c(Cl)c1	-10%	-6%	·	·	?	·	16%[46.1 µM]	-8%
COc1ccc(CC(=O)NC2CCN(CC(=O)Nc3ccc4c(c3)OCCO4)CC2)cc1OC	6%	-14%	0%	-0.8%	22%&22%	-1%	7%	-1%
CCN(CCn1cccn1)C(=O)CCc1nnc(Cc2c[nH]c3ccccc23)o1	-9%	0%	·	·	·	-4%	·	0%
Cc1ccccc1C(=O)N/N=C/c1cccc2ccccc12	4%	47%[activator]	·	·	·	-4%	·	2%
CCc1cccc(OCC2Cn3c(nc4c3c(=O)[nH]c(=O)n4C)O2)c1 (stereo not given)	3%	-17%	·	·	·	-9%	·	1%
CCOC(=O)c1cnc2c(C)cccc2c1NCCc1ccc(OC)c(OC)c1	-8%	?	-8%&-9%	-4.8%&-3.8%	-6%&-6%	-6%	-9%[46.1 µM]	-1%
COc1ccc(CCNC(=O)COc2ccccc2[N+](=O)[O-])cc1OC	5%	-18%	·	·	15%[46.1 µM]	-5%	?	5%
CC1(C(=O)NC2CCCCCCC2)CCC(=O)N1CCN1CCOCC1 (stereo not given)	-4%	·	-10%	-0.6%	19%	-7%	14%	-5%
Cc1cc(C(=O)OCC(=O)Nc2ccc(F)cc2F)c(C)o1	-7%	0%	0%	4.4%	?	-18%	-1%	-4%
O=C(COC(=O)c1ccc(NS(=O)(=O)c2cccs2)cc1)NCc1ccco1	12%	-13%	·	·	·	2%	·	-1%
CN(C)c1cc(-c2ccc(Cl)c(Cl)c2)oc(=O)c1Cl	7%	14%	·	·	·	-47%	·	-1%
CCCN(CCC)CCCNC(=O)c1cc2c(=O)n(CC)c3ccccc3c2s1	2%	14%	·	·	10µM*	0%	?	-2%
O=C1C=C(c2ccccc2)C[C@H](c2cccs2)[C@H]1n1cnc([N+](=O)[O-])c1	-10%	-8%	?	-6.9%	?	1%	?	-3%
CC(C)CNS(=O)(=O)c1ccc(CC(C)C)cc1	-2%	45%[activator]	·	·	-16%[46.1 µM]	·	1%[46.1 µM]	0%
CC(=O)Nc1ccc(-c2nnc(SCC(=O)Nc3ccc4c(c3)oc3ccccc34)n2C)cc1	1%	25%	14%	5.7%	9%	-13%	?	-3%
CCOC(=O)/C(=N/Nc1ccccc1OC)N1CCCc2ccccc21	5%	13%	·	·	?	-1%	-18%[46.1 µM]	-1%
CC1(C)C(=O)Nc2ccccc2N1C(=O)CSc1nc(-c2ccccc2)cs1	4%	16µM*	9%	-9.7%	?	4%	6%	8%
CN(CC(=O)NCc1cccnc1)S(=O)(=O)c1ccccc1	-3%	0%	·	·	·	2%	·	2%
CCc1cccc(N2C(=O)N(Cc3c(F)cccc3Cl)c3ccccc3S2(=O)=O)c1	·	-19%	-5%	0.7%	·	·	-13%[46.1 µM]	·
COc1cccc(OC)c1C(=O)NNS(=O)(=O)c1ccc2ccccc2c1	-7%	-15%	·	·	-9%[46.1 µM]	5%	8%[46.1 µM]	-5%
Cc1ccc(C)c(N2CN(CCC3=CCCCC3)CNC2=S)c1	-1%	-23%	·	·	-29%	-4%	5%	1%
CCOc1ccc(NC(=O)CNC(=O)c2nn(-c3ccc(OC)c(OC)c3)c(=O)c3ccccc23)cc1	-14%	21%	·	·	2%	12%	?	0%
Cc1c(Cl)c(=O)n2c(=O)c(Cl)c(C)n12	6%	-11%	·	·	8%[46.1 µM]	·	19%[46.1 µM]	-2%
Cc1ccc2nc(N/N=C/c3ccccc3F)nc(-c3ccccc3)c2c1	3%	-10%	-28%	-4.6%	14%	6%	6%	-20%
Cc1ccc(C(=O)OC2=C(C(=O)c3ccccc3)N(C)S(=O)(=O)c3ccccc32)cc1	·	-13%	-25%	-3.7%	·	·	-2%[46.1 µM]	·

Next section:
Compound	RE007 growth inh	StopGo reporter	Cruzain noTriton	Cruzain inh Det	Marburg entry inh	NS1 inh	Lassa entry inh	SARS PLP yeast
N#C/C(=C\Nc1ccc(Cl)cn1)S(=O)(=O)c1ccccc1	5%	36%[activator]	·	·	?	1%	?	0%
COc1cccc(C(=O)CC(=O)C(=O)Nc2cccc([N+](=O)[O-])c2C)c1	0%	-27%	·	·	?	-55%	-12%[46.1 µM]	0%
COc1ccc(OC)c(NC(=O)CSc2ccc(-c3ccco3)nn2)c1	-8%	-22%	·	·	·	-7%	·	-4%
O=C(COC(=O)Cn1cnc2ccccc21)Nc1ccc2c(c1)C(=O)c1ccccc1C2=O	-1%	5%	-17%	-15%	?	10%	0%	-13%
Cc1ccc(-c2cc(C(F)F)n3ncc(C(=O)Nc4cn(C)nc4C)c3n2)cc1	7%	-1%	·	·	·	3%	·	0%
COc1ccc(C2C(CN3CCOCC3)C(=O)N2c2ccccc2)cc1 (stereo not given)	6%	-13%	·	·	?	3%	?	0%
Cc1cc(C)n(-c2nc3cc(Cl)ccc3nc2Nc2ccc(CC(=O)O)cc2)n1	·	-18%	-3%	-1.6%	4%[46.1 µM]	·	-5%[46.1 µM]	·
O=C(COc1ccccc1O)Nc1ccccc1Cl	-23%	0%	-2%	-0.9%	-19%[46.1 µM]	-31%	0%	-6%
Cn1c(=O)c2c(nc3n2CC(COc2ccccc2)O3)n(C)c1=O (stereo not given)	1%	-17%	·	·	·	5%	·	-1%
O=C(c1cccs1)N1CCN(Cc2ccncc2)CC1	6%	-12%	3%	10%	-10%	-4%	-4%	7%
COc1ccccc1C(=O)Nc1ccc(N2CCN(Cc3ccccc3)CC2)cc1	7%	?	-8%	1.4%	?	-3%	?	8%
CC(C)CSc1nnc2c(n1)[nH]c1ccccc12	7%	·	-26%	-1.3%	?	-20%	?	-4%
CC1c2[nH]c3ccccc3c2CCN1S(C)(=O)=O (stereo not given)	45%	-13%	-2%	-2.2%	-3%	0%	4%	1%
O=C1CC2(CCN(C(=O)c3cccc(Br)c3)CC2)Oc2ccccc21	28%	?	·	·	?	·	0%	-4%
Nc1ccc2nc(SCC(=O)Nc3ccc(N4CCOCC4)c(Cl)c3)sc2c1	-16%	-15%	?	-8.2%	?	10µM*	-7%	8%
COc1ccc2c(C)cc(SCC(=O)c3ccc4c(c3)OCO4)nc2c1	-5%	-12%	-11%	4.5%	-1%	-11%	29%	6%
O=C(Nc1c(O)c2ccccc2[nH]c1=O)c1ccco1	2%	5%	·	·	·	-42%	·	2%
CCOc1ccccc1N(CC(=O)Nc1ccc2c(c1)OCO2)S(C)(=O)=O	6%	-7%	1%	6.7%	-16%	3%	-9%	6%
O=C(Cc1cccs1)N(c1ccc(F)cc1)C1(C(=O)NC2CCCCC2)CCCC1	-17%	3%	3%	-3.1%	-32%	-33%	-4%	-11%
CC1c2ccsc2CCN1S(=O)(=O)c1cccs1 (stereo not given)	2%	0%	·	·	·	-1%	·	-2%
CCCCc1nnc(NC(=O)CSCc2cc(=O)n3ccsc3n2)s1	1%	-7%	·	·	·	8%	·	3%
COc1cccc(NC(=O)c2cccn(Cc3ccccc3C)c2=O)c1	·	0%	1%	-9.6%	·	·	?	·
Cc1ccc(CN2CCN(/N=C/c3sccc3C)CC2)c(C)c1	-4%	-27%	-9%	-3.2%	1%	-10%	-2%	11µM*
Cn1c(SCC(=O)Nc2cccc(F)c2)nc2c([nH]c3ccccc32)c1=O	0%	-1%	·	·	·	3%	·	0%
Cc1ccc(NC2=C/C(=N/S(=O)(=O)c3cccs3)c3ccccc3C2=O)cc1	-19%	7.9µM*	?	-3.6%	4.6µM*	?	4.1µM*	-14%
O=C(NCCc1nc2ccccc2[nH]1)/C(=C/c1ccco1)NC(=O)c1ccccc1Br	13%	-13%	1%	-24%	0%	-4%	-1%	20%
CCNc1sc(S(C)(=O)=O)nc1S(=O)(=O)c1ccc(C)cc1	·	17%	-6%	4.4%	?	·	7%[46.1 µM]	·
Cc1ccccc1CN(C)CC(=O)Nc1c(C)cccc1C(C)C	-5%	-23%	·	·	?	·	?	-2%
O=C(Nc1nnc(S(=O)(=O)N2CCCC2)s1)c1cccc([N+](=O)[O-])c1	5%	17%	·	·	·	0%	·	-2%
CCCCNS(=O)(=O)c1ccc2nc(-c3cccnc3)cc(C(=O)NCC(OC)OC)c2c1	2%	123%[activator]	·	·	·	3%	·	0%

Other results follow:
Compound	RE007 growth inh	StopGo reporter	Cruzain noTriton	Cruzain inh Det	Marburg entry inh	NS1 inh	Lassa entry inh	SARS PLP yeast
S=C(Nc1ccc(Cl)cc1)Nc1cccc2cnccc12	-19%	-6%	-12%	-21%	?	-62%	?	-98%
CCOC(=O)c1oc2nc(C(C)C)c3c(c2c1N)CCC3	-1%	-24%	21%	-12%	3%[46.1 µM]	-15%	-1%	-1%
COc1ccc(S(=O)(=O)N2CCC(C(=O)N[C@@H](C)C(=O)N3CCCCCC3)CC2)cc1	-17%	-16%	·	·	-23%[46.1 µM]	0%	2%[46.1 µM]	3%
N=c1c2c3c(sc2ncn1Cc1ccccc1)CCCC3	-3%	-3%	0%	-1.5%	?	-3%	13%	-19%
